Source: PubChem BioAssay
BJeLR viability: kills HRASV12-expressing BJeLR cells; BJeLR (HRASV12) viability, CellTiter-Glo ATP luminescence, 48 h; reference of the scale not given here; inhibition, % (no concentration beside the values); 300,000 tested, 0.17% active;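 active = replicate mean above 50%; inconclusive = above 50% but judged a plate artefact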;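 note: 50 nL library stock added to about 25 µL; numbers are from one replicate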
RN4220 kill: S. aureus RN4220 growth inhibition | inhibition, % (test concentration not listed) | AID 1259311 | OD600, 16 h | 330,000 tested, 0.33% active;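 active = z-score of -3 or lower and OD600 up to 0.18 on both plates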;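 note: plate controls were untreated cells for no effect and reference antibiotic for full effect; stock transfer was 100 nL into about 80 µL; one replicate is shown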
ugtP null kill: compounds lethal to S. aureus RN4220 ugtP deletion mutant; 330,000 tested, 0.54% active; AID 1259309; OD600 growth, 16 h; some inactives read as strong as hits; growth inhibition, % (concentration not given with the values);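 active = z-score under -3 and OD600 up to 0.15 on both plates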;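 note: plate controls were untreated wells for no effect and antibiotic for full effect; wells of about 80 µL received 100 nL stock; the first replicate is given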
Autofluor counter: compound fluorescence in toxin protease inhibitor counterscreen; fluorescence intensity (concentration not given with the values); compound autofluorescence counterscreen, microsphere flow cytometry; hits give high values; 360,000 tested, 3.1% active; AID 624483;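 active = at least 3 SD above the mean of all compounds, about 16000 in these data; inconclusive = too few beads counted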;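 note: 100 nL of 1 mM stock went into each well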
Mtb hypoxia inh: inhibitors of hypoxia-regulated fluorescent reporter in Mycobacterium tuberculosis. fluorescence inhibition, % (no concentration beside the values). M. tuberculosis hypoxia-regulated fluorescent reporter, fluorescence. AID 1159583. 300,000 tested, 0.1% active;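 active = 35 to 45% if threefold the growth effect, above 45% if 1.5-fold the growth effect; inactive = the rest, general growth blockers included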;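 note: wells of about 50 µL received 100 nL stock; 0% = vehicle wells and 100% = reference inhibitor wells; whole bacteria with a GFP reporter of the hypoxia response; strong numbers were not always called active; many hits fall short of the cut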
PrP UTR inh: inhibition of PrP 5' UTR reporter expression; inhibition, % (no concentration beside the values); cell-based PrP 5' UTR mRNA reporter, plate reader; 340,000 tested, 0.35% active;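 active = every replicate at 50% or more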;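 note: 0 = median of the neutral control wells; tested in H4 reporter cells; numbers are from one replicate; inactives centre near -14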
Mtb hypoxia inh growth: second read-out of Mtb hypoxia inh, no call of its own (marks repeat the call); growth inhibition, %; measured here: M. tuberculosis growth (absorbance);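 0% = vehicle and 100% = reference antibiotic; read after six days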
* marks the source's active call; other numbers are inactive results; ? = inconclusive; · = no result given.

SMILES	BJeLR viability	RN4220 kill	ugtP null kill	Autofluor counter	Mtb hypoxia inh	Mtb hypoxia inh growth	PrP UTR inh
O=C(NCc1ccccc1)c1ccc(C=NO)nc1	·	6.8	-1	·	3	8	·
CC(O)C1CNC(=O)C(=O)N1CC1CCCCC1 (stereo not given)	·	5.2	7	·	9	13	·
O=C(Nc1ccon1)c1cccc(Cl)c1	-5	4.9	17	11158	2	-2	-15
Cc1sc(NC(=O)CSc2nnnn2C2CCCC2)c(C#N)c1C	-7	4.2	6	8180	14	5	-4
O=C(NC1CCCCC1)NC1CC2CCC(C1)N2Cc1nnnn1Cc1ccc2c(c1)OCO2 (stereo not given)	4	-9.7	-1	3240	-3	0	-2
COC(=O)N[C@H](CC(C)=O)c1cccc(C(F)(F)F)c1	-2	·	·	2884	·	·	-17
COc1ccc(C)cc1S(=O)(=O)N1CCC2(CC1)OCCN2S(=O)(=O)c1cccs1	-5	4.0	3	4086	11	8	-6
CC(c1nnc(SCn2nnc3ccccc3c2=O)n1-c1ccc(Cl)cc1)N(C)C (stereo not given)	4	5.2	11	7014	9	-1	-19
CN(c1ccc(C(=O)NCCc2ccccc2)cc1)S(C)(=O)=O	6	2.7	6	20035*	2	9	-38
N#CCN1C(=O)NC2(CCCc3sccc32)C1=O (stereo not given)	-5	4.0	0	4323	-3	-3	-5
COc1ccc(NC(=O)c2cnn(-c3ccccc3)c2C)cc1OC	1	0.3	9	3000	7	-10	-40
O=C(c1ccccc1)c1cnc(-c2ccc(Cl)cc2)s1	-6	3.6	3	9375	3	13	-44
Cc1onc(NC(=O)NC(=O)c2c(Cl)cccc2Cl)c1Br	4	1.7	5	5443	7	-2	-7
CC1(c2ccc(Cl)cc2)NC(=O)N(CC(=O)Nc2ccc(N3CCCCC3)cc2)C1=O (stereo not given)	-1	0.1	6	·	-4	-1	-10
COc1cccc(-n2c(=S)sc3c(=O)n(-c4ccccc4OC)c(SCC4OCCO4)nc32)c1	9	32	-71	4301	15	1	-16
O=C(CC1C(=O)NCCN1C/C=C/c1ccccc1)NCCCC1CCCC1 (stereo not given)	0	6.6	-1	5177	1	2	-22
CSC1=C(C#N)C(CC(C)C)C(C(C)=O)=C(C)N1 (stereo not given)	2	5.9	0	4690	·	·	-20
Cn1c(N)c(C(=O)CSc2nc3ccccc3n2-c2ccccc2)c(=O)n(C)c1=O	-6	1.1	-6	2160	·	·	-5
Cc1cccc(N2CCN(C(=O)COc3ccc4c(c3)CCC4)CC2)c1C	13	-0.5	7	2568	4	3	-23
Cc1nnc(-c2ccc(N3CCCCCC3)c([N+](=O)[O-])c2)o1	-5	3.2	8	3643	11	8	-37

Fetched one by one from the list above:
SMILES	BJeLR viability	RN4220 kill	ugtP null kill	Autofluor counter	Mtb hypoxia inh	Mtb hypoxia inh growth	PrP UTR inh
O=C(Nc1ccon1)c1cccc(Cl)c1	-5	4.9	17	11158	2	-2	-15
Cc1sc(NC(=O)CSc2nnnn2C2CCCC2)c(C#N)c1C	-7	4.2	6	8180	14	5	-4
O=C(c1ccccc1)c1cnc(-c2ccc(Cl)cc2)s1	-6	3.6	3	9375	3	13	-44
O=C(CC1C(=O)NCCN1C/C=C/c1ccccc1)NCCCC1CCCC1 (stereo not given)	0	6.6	-1	5177	1	2	-22

Carrying on:
SMILES	BJeLR viability	RN4220 kill	ugtP null kill	Autofluor counter	Mtb hypoxia inh	Mtb hypoxia inh growth	PrP UTR inh
COc1cccc(OCc2nnc(SCc3cc(=O)[nH]c4ccccc34)o2)c1	-6	4.4	-7	4913	7	8	-19
CC(C)(C)NC(=O)NC(=O)COC(=O)c1nc(-c2ccccc2)n(-c2cccc(C(F)(F)F)c2)n1	2	3.4	0	2213	0	1	-18
COc1ccccc1NC(=O)COC(=O)C12CC3CC(CC(Cl)(C3)C1)C2	1	7.0	7	4149	5	3	-10
CCOc1ccc(N2C(=O)C3ON(c4ccccc4)C(c4ccco4)C3C2=O)cc1 (stereo not given)	0	·	·	3702	·	·	-1
CCC1CO/C(=C(\C(=C(Cl)Cl)N2CCOCC2)[N+](=O)[O-])N1 (stereo not given)	0	2.7	2	4932	7	5	-20
CCCn1c(SC(C)C(=O)O)nc2ccccc21 (stereo not given)	4	1.7	1	21928*	-5	5	-8
C=CCC[C@H](Cc1ccc(F)cc1)C(=O)OC[C@H]1CCCN1C(=O)[C@@H](CC=C)CC(=O)NCCO	·	4.3	-4	3754	2	8	3
CCCCCC(=O)NNC1=NCC(Cc2cccc(Cl)c2)S1 (stereo not given)	-14	8.4	10	4284	8	8	-29
Cc1cc(C)c(NC(=O)C2CCCN2CCOC(=O)c2ccccc2)c(C)c1 (stereo not given)	-5	11	-1	2569	-2	2	-20
Cc1ccc(CN2C(=O)C(C)Nc3ncnc(N4CCN(c5ccccn5)CC4)c32)cc1 (stereo not given)	2	-3.7	-26	3789	-5	5	-2
CCN(CC(=O)NC1CCS(=O)(=O)C1)S(=O)(=O)c1ccc(F)cc1 (stereo not given)	-13	3.3	7	2067	-18	-8	12
O=C(Oc1cccc(Oc2ccccc2)c1)N1CCOCC1	7	6.7	-3	10311	3	5	-44
O=C(NC(=S)Nc1cc(C(F)(F)F)ccc1Cl)c1ccccc1	6	1.8	1	3438	8	0	-33
COc1ccc(CNC(=O)Cn2cnc3c(=O)n(C)c(=O)n(C)c32)cc1	-12	6.3	-1	21079*	3	7	-24
CCCCCCCCN1N=N[C@H]2[C@H]1[C@@H]1C[C@H]2N(C(=O)OC(C)(C)C)O1	·	2.1	2	3802	3	8	1
Cc1cc(N2CCOCC2)nc2ccc(NC(=S)NCc3ccc4c(c3)OCO4)cc12	-9	6.1	3	2179	8	3	-17
O=C(/C=C/c1ccccc1)N/C(=C/c1ccccc1)C(=O)NCCO	-1	3.2	2	8537	12	12	-19
Clc1ccc(-c2nc3ccccc3nc2-c2ccccc2)cc1	-9	-5.2	89*	10089	6	8	1
COc1ccccc1OC1=NS(=O)(=O)c2ccccc21	-6	5.3	10	3672	·	·	-24
COc1ccc(NC(=O)CCc2nnc3ccc(NCc4ccco4)nn23)cc1	-6	3.0	3	5388	5	7	-7
CCOc1ccccc1C(=O)NC(C(=O)NCc1ccccc1OC)C(C)C (stereo not given)	-5	2.8	10	4043	3	8	-2
Cc1ccc(OCCC(=O)OCC(=O)Nc2ccc(N3CCOCC3)cc2)cc1	5	0.4	3	4491	8	9	-8
NS(=O)(=O)c1ccc(N=Nc2ccc(=O)[nH]c2O)cc1	-5	-1.4	-6	4119	21	6	-3
O=C(NCc1ccccc1Cl)C1CCN(S(=O)(=O)N2CCCCC2)CC1	3	3.7	19	15942	3	0	-17
COc1ccc(CCN2C(=O)CC(Cc3ccc(Br)cc3)C2=O)cc1OC (stereo not given)	17	4.2	3	2094	6	-1	-34
COC(=O)OCC12CCC(O1)C1(C)C(=O)OCC21 (stereo not given)	-1	1.6	2	2116	5	6	-30
CC(NC(=O)CCC(=O)N1CCCCCC1)c1ccccc1 (stereo not given)	-16	2.9	1	4180	-2	10	-8
O=C1C=C(N2CCN(C3=CC(=O)CCC3)CC2)CCC1	-2	-0.4	1	3948	-2	1	6
COc1cc(CNc2ncn[nH]2)ccc1OCc1cccc(C)c1	-3	3.6	0	5417	1	-6	-40
CC12CCC(=O)N1C(C(=O)Nc1ccc(Br)cc1Cl)CS2 (stereo not given)	-5	0.2	-2	6204	5	0	-20
O=C(O)Cc1sc(-c2ccccc2)nc1-c1ccccc1	1	6.3	-11	6620	2	-7	-14
COc1ccc(-n2cnnc2SCC(=O)c2ccc(S(=O)(=O)N3CCOCC3)cc2)cc1	6	4.9	1	?	16	4	-21
COc1ccccc1N1CCN(Cc2nc3ccccc3c(=O)n2CC(C)=O)CC1	-4	0.1	4	2834	·	·	-22
Cc1ccccc1C(=O)N(Cc1nc2ccccc2c(=O)[nH]1)C1CCCC1	-4	·	·	4173	·	·	-28
O=C(CN1CCOC1=O)N1CCCC(Nc2ccc(F)c(F)c2)C1 (stereo not given)	-1	0.9	1	5508	16	2	-17
CC(C)c1ccc(OCC(=O)NCCO)cc1	-12	2.7	0	2673	7	2	-26
CC(C)(O)CC[C@@H](O)[C@](C)(O)[C@H]1CC[C@@]2(O)C3=CC(=O)[C@@H]4C[C@@H](O)[C@@H](O)C[C@]4(C)C3CC[C@]12C (stereo not given in full)	-14	3.4	-7	5974	·	·	4
CCCOc1ccc(N2C(=O)CC(N(CCc3ccccc3)C(=O)c3ccccc3)C2=O)cc1 (stereo not given)	16	2.5	0	3394	0	7	-44
Cc1ccc(C(=O)N2CC(C)OC(C)C2)c(Cl)c1 (stereo not given)	-11	3.0	5	?	-2	1	-9
COc1cccc(N(Cc2nnc3n2CCCCC3)C(=O)Nc2ccccc2F)c1	-3	2.2	6	3262	13	2	-10

Record cards, from the list above. Screens in order: BJeLR viability	RN4220 kill	ugtP null kill	Autofluor counter	Mtb hypoxia inh	Mtb hypoxia inh growth	PrP UTR inh
COc1ccc(-n2cnnc2SCC(=O)c2ccc(S(=O)(=O)N3CCOCC3)cc2)cc1 across the screens: 6	4.9	1	?	16	4	-21
O=C1C=C(N2CCN(C3=CC(=O)CCC3)CC2)CCC1 across the screens: -2	-0.4	1	3948	-2	1	6

The list goes on:
SMILES	BJeLR viability	RN4220 kill	ugtP null kill	Autofluor counter	Mtb hypoxia inh	Mtb hypoxia inh growth	PrP UTR inh
Cc1noc(C)c1CSc1nc2sc(C)c(C)c2c(=O)n1-c1ccccc1	0	-0.3	10	4387	·	·	-2
CC(C)ON=C1C(=O)N(c2ccccc2)c2ccccc21	·	-5.7	-10	·	5	1	·
COC(=O)C1=C(c2ccc(F)cc2F)CC2CCC1N2C(=O)NCCO (stereo not given)	·	3.1	-4	·	3	1	·
COc1ccc(C(C(=O)NC(C)(C)C)N(C(=O)CNC(=O)c2cccs2)c2ccc(NC(C)=O)cc2)cc1OC (stereo not given)	6	4.0	1	4805	12	-4	-18
Cc1ccc(NC(=O)CN(C)C(=O)Cn2nnc(-c3ccccc3)n2)cc1	3	4.6	7	5968	-1	-5	-47
COc1cc(/C=N/N=C(\N)c2nonc2N)cc(OC)c1OC	-7	·	·	3946	·	·	-14
CCSc1nc2cc(OC)c(OC)cc2c(=O)n1CCc1ccccc1	0	-1.7	-33	11685	3	7	-16
Cc1ccnc(NC(=O)COc2c(C)cc(C)cc2[N+](=O)[O-])c1	2	3.2	-1	2401	9	2	-42
CCC(C)Sc1ccc(C2N[C@@](C)(C(=O)OC)C3C(=O)N(CC)C(=O)C23)cc1OC (stereo not given in full)	·	3.6	-8	·	-5	-3	·
O=C(CP(=O)(c1ccccc1)c1ccccc1)N1CCCCC1	-5	1.1	-7	2327	-2	-4	-12
O=S(=O)(c1ccc(F)c(F)c1F)N1CCN(C(=S)NC2CC3CCC2C3)CC1 (stereo not given)	-7	5.8	-3	5309	9	1	-3
CC(=O)Nc1ccc(-n2c(C)c(C(C)=O)c(C(C)=O)c2C)cc1	-3	2.0	4	2831	·	·	-19
CCCS(=O)(=O)c1c(S(=O)(=O)CCC)c2cnccn2c1C(=O)c1ccc(Cl)cc1	0	-2.9	5	2408	·	·	-32
COc1ccc(N(Cc2cc3ccc(C)cc3[nH]c2=O)C(=O)C2CCCO2)cc1 (stereo not given)	5	8.7	8	4766	-10	10	-19
CN1CCN(CCCNC(=O)c2ccc(/C=C3\Oc4ccccc4N(Cc4ccc(Cl)cc4)C3=O)cc2)CC1	5	-8.4	-10	·	1	2	6
COc1ccc(C2Nc3ccccc3C(=O)N2c2ccc(F)cc2)cc1CSc1ccccn1 (stereo not given)	3	4.0	-3	2057	14	3	-44
CCC(C)NCCOc1ccc(Br)cc1 (stereo not given)	-4	4.2	5	4514	10	3	-6
Cc1ccc(N(CC2CO2)S(=O)(=O)c2ccccc2[N+](=O)[O-])cc1 (stereo not given)	0	-1.3	1	5180	17	17	-2
COc1ccc(-c2nn(-c3ccccc3)cc2C(=O)NCC(c2cccs2)N2CCOCC2)cc1 (stereo not given)	-1	-3.9	-6	5523	-6	2	-35
CC(=O)OCC1(C)CN(c2ccccc2)N(C(C)=O)C1=O (stereo not given)	-12	-0.9	0	1947	-1	-6	-36
Cc1ccc(C(=O)c2coc3ccc(OCC(=O)O)cc23)cc1	1	3.1	4	2767	·	·	-25
